High-throughput results (PubChem BioAssay)
VDR inhibitor = blocks the human vitamin D receptor | P11473 | VDR-SRC2-3 peptide fluorescence polarization, 2 h | Potency, µM, for the others: max response, negative = inhibition, most hits filed as inhibitors | 0.93% of 400,000 active | AID 504847; active = well fitted inhibition curve with a large enough effect; inconclusive = small, poorly fitted or top-dose-only effect, or another doubt; inactive = no such curve, though single readings can be large or run the other way; also: series mostly up to about 120 µM
Target sequence (P11473 whole entry, looked up): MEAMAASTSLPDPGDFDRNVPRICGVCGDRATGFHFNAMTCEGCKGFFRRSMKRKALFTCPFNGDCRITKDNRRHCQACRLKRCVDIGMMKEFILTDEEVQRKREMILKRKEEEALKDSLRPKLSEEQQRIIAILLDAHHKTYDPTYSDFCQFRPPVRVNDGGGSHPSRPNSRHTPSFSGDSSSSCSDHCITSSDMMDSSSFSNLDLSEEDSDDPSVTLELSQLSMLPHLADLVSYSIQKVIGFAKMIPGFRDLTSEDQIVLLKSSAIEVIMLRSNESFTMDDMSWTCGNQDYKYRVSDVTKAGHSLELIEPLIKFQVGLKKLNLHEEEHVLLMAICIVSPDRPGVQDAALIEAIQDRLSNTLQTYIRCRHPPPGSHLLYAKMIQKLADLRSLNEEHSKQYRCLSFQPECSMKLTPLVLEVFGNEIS
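The screen uses fluorescence polarization to detect compounds that interfere with recruitment of the SRC2-3 coactivator peptide to VDR; plates are read after 2 h at room temperature.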
* marks the source's active call; other numbers are inactive results; ? = inconclusive. % is scaled to controls: 0 for no effect and ±100 for the full control effect; potency is read from the fitted curve at half-maximal effect.

SMILES	VDR inhibitor
O=C(CSc1nccn1Cc1ccc(F)cc1)NCc1ccc(F)cc1	2%
CCOc1ccc(NC(=O)Cn2ccn(-c3ccc(F)c(F)c3)c(=O)c2=O)cc1	1%
COc1cccc(CNC(=O)C2CCN(S(=O)(=O)N3CCCCC3)CC2)c1	9%
CCc1cccc(C)c1NC(=O)C1CCN(C(=O)c2ccc([N+](=O)[O-])cc2)CC1	15%
Cc1cc(NC(=O)COC(=O)C2CCN(S(=O)(=O)c3c(Cl)cccc3Cl)CC2)no1	19%
O=S(=O)(Nc1ncccn1)c1ccc(NS(=O)(=O)c2cc(Cl)ccc2Cl)cc1	-11%
Cc1cccn2c(=O)c3cc(C(=O)N4CCOCC4)n(C)c3nc12	-20%
O=C1NC(=O)/C(=C/c2ccc(OS(=O)(=O)c3ccc(F)cc3F)cc2)N1	-1%
O=C(NCC1CCCO1)c1ccc2c3n(nc2c1)-c1ccccc1CO3 (centres undefined)	-7%
CC(C)CC1(C)NC(=O)N(CCN2C(=O)c3ccccc3C2=O)C1=O (centres undefined)	-2%
CCOC(=O)c1sc(NC(=O)CSc2nc(C)cc(C(F)(F)F)n2)c(C#N)c1C	28µM*
CCn1cc(C(=O)N2CC(C)CC(C)C2)c(=O)c2cc(S(=O)(=O)N(C)C)ccc21 (centres undefined)	-16%
COP1(=O)C=C[C@H](N(Cc2ccccc2)S(=O)(=O)c2ccccc2[N+](=O)[O-])[C@@H](C)O1 (some centres undefined)	-7%
CC1(C)Cc2c(sc3ncn(N)c(=N)c23)CO1	0%
CCOC(=O)C1OC2(CCCC2)OC1C(=O)OCC (centres undefined)	5%
COc1ccc(OCc2cc(C(=O)NCC(C)(C)N3CCOCC3)no2)c(Cl)c1	4%
Cc1ccc(NC(=O)CSc2cn(CC(=O)N3CCOCC3)c3ccccc23)cc1Cl	7%
Cn1c(N)c(C(=O)CSc2nnc(C3CC3)n2-c2ccccc2)c(=O)[nH]c1=O	1%
Cc1cc(C)cc(NC(=O)C(=O)NCC(c2ccc3c(c2)OCO3)N2CCOCC2)c1 (centres undefined)	10%
Nc1cc(C(F)(F)F)ccc1NCCc1ccccn1	0%
COCCN(C(=O)c1ccccc1F)c1c(N)n(Cc2ccccc2)c(=O)[nH]c1=O	-2%
Cc1c(Cl)cccc1NC(=O)C1CCCN(c2ncnc3onc(C)c23)C1 (centres undefined)	15%
COc1ccc(C(=O)NC(=S)N2CCCCC2c2cccnc2)cc1OC (centres undefined)	-6%
Cc1cc(NC(=O)C2CCN(S(=O)(=O)c3cccc4nsnc34)CC2)ccc1Br	-9%
CN(C(=O)COc1cccc(C#N)c1)C1CCS(=O)(=O)C1 (centres undefined)	-13%
(cont.)
SMILES	VDR inhibitor
CC(=O)Nc1ccc(S(=O)(=O)Nc2ccc3c(c2)CCC3)cc1	10%
Cc1nccn1-c1c([N+](=O)[O-])c(=O)n(C)c2ccccc12	-2%
Cc1cccc(-n2c(SCC(=O)N3CCCC3)nnc2-c2ccccn2)c1C	-1%
Cc1nc(N)nc(N/N=C/c2ccccc2)n1	29%
CCCCC(=O)OCC(=O)C1(O)Cc2c(O)c3c(c(O)c2C(OC2CC(NC(=O)C(F)(F)F)C(O)C(C)O2)C1)C(=O)c1c(OC)cccc1C3=O (centres undefined)	-7%
COC(=O)c1ccc(Cn2c(CN3CCOCC3)nc3ccccc3c2=O)o1	-3%
COc1ccccc1-n1cc(-c2ccc([N+](=O)[O-])cc2)[nH]c1=S	-8%
CCC1Oc2ccc(C)cc2N(CC(=O)NCCc2ccccc2)C1=O (centres undefined)	6%
Nc1nc(-c2ccc3c(c2)CCO3)cs1	-1%
CCOc1ccc(-c2nonc2NC(=O)c2oc3ccc(Br)cc3c2C)cc1	0%
COCCn1c(CCC(=O)Nc2ccc(OC)c(OC)c2)nc2cccnc21	17%
O=C(c1ccc(Cn2c(=S)[nH]c3ccc(N4CCOCC4)cc3c2=O)cc1)N1CCC(N2CCCCC2)CC1	-15%
CCC(CO)Oc1cc(NCc2ccncc2)c2ncn(C(C)C)c2c1 (centres undefined)	-14%
CC(OC(=O)c1ccc(=O)n(Cc2ccccc2)n1)C(=O)Nc1cccc(Cl)c1 (centres undefined)	-5%
Cc1cc(C)c(NC(=O)C2CCN(c3nn4c(=O)cc(C)nc4s3)CC2)c(C)c1	6%
CCn1c(=NC(=O)c2ccc(S(=O)(=O)N(C)C)cc2)sc2cccc(OC)c21	-4%
Cc1cccc(NC(=O)c2cc3ccccc3c(=O)o2)n1	11%
CC(C)(C)c1ccc(/C=C/C(=O)c2ccc(NC3=NCCCS3)cc2)cc1	?
O=C(Nc1ccc(NC(=O)c2ccco2)c(Cl)c1)c1ccccc1	-4%
COc1cccc(/C=C2/SC(=O)N(CC(=O)N3CCc4ccccc4C3)C2=O)c1OCC(=O)O	-26%
O=C(NCCc1ccccc1)c1ccc2c(c1)CCN2S(=O)(=O)c1ccccc1	10%
CCCC(=O)NC(c1ccc(Cl)cc1)c1ccc2cccnc2c1O (centres undefined)	14%
O=C(CSc1n[nH]c(=O)n1Cc1ccccc1)Nc1ccc(F)c(F)c1F	-9%
CCCOC(=O)c1ccc(Oc2cn[nH]c2-c2ccc(O)cc2O)cc1	1%
Cc1ccc(NC(=O)COC(=O)Cc2cccs2)cc1S(=O)(=O)N1CCOCC1	1%
(next part)
SMILES	VDR inhibitor
C=C(C)C(=O)Nc1cccnc1Oc1ccc(F)cc1	-21%
Cc1ccc(CNc2nc(-c3ccco3)nn2C(=O)c2ccccc2[N+](=O)[O-])cc1	15%
CCOC(=O)c1cc(S(=O)(=O)Nc2ccccc2OCC)[nH]n1	3%
O=C(CN1CCN(c2ccc(C(F)(F)F)cn2)CC1)Nc1ccc2c(c1)OCO2	-17%
COc1ccc2[nH]c3nc(SC(C)C)nnc3c2c1	-18%
CCc1ccc(OCC(=O)N/N=C(\C)c2ccccc2OC(F)F)cc1	9%
C[C@H]1C(c2cccc(Cl)c2)=NN(c2ccccc2)[C@@H]1CO	-19%
COc1ccc(CCNC(=O)NC2CCCCC2)cc1	1%
COC(=O)CNC(=O)c1cc(-c2ccncc2)nc2ccccc12	-1%
C=CCNC(=O)NC(=O)COC(=O)CNS(=O)(=O)c1ccc(F)c(F)c1F	-4%
CC1CCN(CCCNC(=O)C2CCCN(c3ncnc4c3nc3n4CCCCC3)C2)CC1 (centres undefined)	-21%
CCN(CC(=O)Nc1ccccc1C(F)(F)F)C(=O)CCc1nc2sc3c(c2c(=O)[nH]1)CCCC3	-11%
CN(C(=O)CSc1nnc(-c2cccnc2)o1)C1CCCCC1	7%
O=C(Nc1oc2ccccc2c(=O)c1-c1ccc(Cl)cc1)c1ccco1	4%
CCOC(=O)N1CCN(c2ncc3c(n2)CC(c2ccccc2O)CC3=O)CC1 (centres undefined)	15%
CCC(=O)N1N=C(c2cccs2)CC1c1ccc(OC)cc1 (centres undefined)	1%
COc1ccc(NC(=O)c2nc(C)n(-c3ccc([N+](=O)[O-])cc3)n2)cc1	14%
CCCCNC(=O)CSc1nc2ccc(NC(=O)CSc3nnc(COc4ccccc4C)n3C)cc2s1	-24%
Cc1ccc(-n2ncc(C(=O)NC3CC3)c2C2CCN(C(=O)OC(C)(C)C)CC2)cc1	-10%
Cc1cccc(OCCSc2nc3ccc(NC(=O)c4cccs4)cc3s2)c1	7%
COc1cccc(CN2C(=O)NC3(CCCCCC3)C2=O)c1	6%
CC(C)OCCCNC(=O)C1CC(=O)N(C2CCCCCCC2)C1 (centres undefined)	6%
COc1cc2[nH]c(=O)n(CCC(=O)NCc3cccnc3)c(=O)c2cc1OC	-2%
O=C(NCc1ccco1)c1cc(-c2ccc(F)cc2)on1	-11%
O=C(CSc1nc2cc(Cl)ccc2o1)NCCc1ccccc1	4%

The list goes on (3 carried over from the part before).
SMILES	VDR inhibitor
COc1cc2[nH]c(=O)n(CCC(=O)NCc3cccnc3)c(=O)c2cc1OC	-2%
O=C(NCc1ccco1)c1cc(-c2ccc(F)cc2)on1	-11%
O=C(CSc1nc2cc(Cl)ccc2o1)NCCc1ccccc1	4%
Cc1ccccc1-c1nc2c(s1)CCc1onc(-c3cccc([N+](=O)[O-])c3)c1-2	-22%
O=C(Cc1cccc2ccccc12)N1CCN(c2ncccn2)CC1	6%
COC1OC(CO)C(OC2OC(C(=O)O)C(OC3OC(COS(=O)(=O)O)C(OC4OC(C(=O)O)C(OC5OC(CO)C(OC6OC(C(=O)O)C(OC7OC(COS(=O)(=O)O)C(OC8OC(C(=O)O)=C[C@H](O)C8OS(=O)(=O)O)C(O)C7NC(C)=O)[C@@H](O)C6O)C(O)C5NC(C)=O)[C@@H](O)C4O)C(O)C3NC(C)=O)[C@@H](O)C2O)C(O)C1NC(C)=O (some centres undefined)	-3%
CC1CCCCN1S(=O)(=O)c1cn(C)c(=O)n(C)c1=O (centres undefined)	-9%
O=[N+]([O-])c1ccc(-c2csc(N/N=C/c3cccnc3)n2)cc1	-1%
O=S(=O)(c1ccc(NC(=S)Nc2ccc3c(c2)OCO3)cc1)N1CCOCC1	-6%
O=C(NC(C(=O)c1ccccc1)N1CCOCC1)c1cccs1 (centres undefined)	-3%
Cc1ccc(-c2noc(COC(=O)c3ccco3)n2)cc1	-18%
C/C(=N/NC(=O)CNC(=O)c1cccnc1)c1ccco1	10%
CCc1nc(CNC(=O)c2cc(OC)c(OC)c(OC)c2)no1	2%
COc1ccc(C(=O)O)cc1S(=O)(=O)NCCCN1CCCC1=O	16%
CCOC(=O)/C=C1\SCC(=O)N1CC(=O)NCCc1ccc(F)cc1	1%
O=C1C(Cl)=C(N2CCN(Cc3ccccc3)CC2)C(=O)N1Cc1ccccc1	2%
N#Cc1cc2c(nc1SCc1cccc(Cl)c1)CCCCC2	-19%
CCC(C)NC(=O)Cn1c(=O)ccc2cc(S(=O)(=O)N3CCCC3)ccc21 (centres undefined)	-1%
Cc1csc2nc(-c3cccc(NC(=O)c4ccccc4F)c3)cn12	11%
Brc1ccccc1/C=N/Nc1ccccn1	11%
COc1cc2[nH]c(=O)c(C(=O)NCc3ccc(F)cc3)c(O)c2cc1OC	0%
O=C(Nc1ccc(Cl)cc1C(=O)NCCN1CCOCC1)c1ccco1	0%
CCn1nccc1C(=O)Nc1ccc(Cl)cc1Cl	11%
C[C@@H]1CN([C@@H](C)CO)C(=O)c2cccc(NS(C)(=O)=O)c2O[C@H]1CN(C)C(=O)Nc1ccc(F)cc1	-20%
CCCCCCC[C@@H](C/C=C/CCC(=O)N(C)C/C(=C/Cl)C/C(=C\C(=O)N1C[C@H](O)CC1=O)OC)OC	-3%
CCN(CC(=O)Nc1c(F)cccc1F)C(=O)CNC(=O)c1ccc(C)s1	-2%
COc1ccc(CN(C)C(=O)c2ccncc2)c(OC)c1	5%
O=C(NN1C(=O)C2C3C=CC(C4CC34)C2C1=O)c1ccc(Br)cc1 (centres undefined)	5%
Continuation.
SMILES	VDR inhibitor
CC(=O)c1ccc(NC(=O)Nc2ccncc2)cc1	2%
Cc1ccc(Cn2c(CCNc3nc(-c4ccc(C)cc4)cs3)nc3cc(C(=O)NCCCO)ccc32)cc1	-5%
COc1ccc(NC(=O)CCc2nnc3n(C)c(=O)c4sccc4n23)cc1	-10%
CC(C)c1ccc(NC(=S)Nc2ccc3cn[nH]c3c2)cc1	-4%
CC(=O)OC1CCC2(C)C(COc3ccc4ccc(=O)oc4c3)C(C)(O)CCC2C1(C)C (centres undefined)	19%
CCOC(=O)c1cccc(NC(=O)C(NS(=O)(=O)c2ccc3c(c2)CCN3C(C)=O)C(C)C)c1 (centres undefined)	-8%
CN(C)C(CNC(=O)c1ccccc1C(F)(F)F)c1ccco1 (centres undefined)	-29%
Cc1cc(C)cc(NC(=O)CN2CCC(NC(=O)c3ccccc3F)CC2)c1	-7%
O=C(CCN1C(=O)COc2ccccc21)NCc1cccnc1	8%
CCOC(=O)CCCNC(=O)CSc1nnc(-c2ccccc2)c(-c2ccccc2)n1	7%
N#C/C(=C(/O)COc1ccccc1)c1nnc2n1CCCCC2	-12%
CCOc1ccc(/C(O)=C2/C(=O)C(=O)N(CCCN3CCOCC3)C2c2ccc(F)cc2)cc1C (centres undefined)	-19%
Cc1c(-c2nc(-c3ccc4c(c3)[nH]c(=O)n4C)no2)cccc1[N+](=O)[O-]	1%
COc1ccc(NC(=O)C2CCN(S(=O)(=O)c3ccccc3)CC2)cc1	3%
C=CCOC(=O)/C(=C/c1cccc2ccccc12)NC(=O)c1ccccc1	-17%
CC(Sc1ncccn1)C(=O)NNC(=O)c1cccc(Cl)c1 (centres undefined)	-5%
CCCc1ccc(OCC(O)CN2CCN(C(=O)OCC)CC2)cc1 (centres undefined)	-2%
COc1ccc(C/C(C)=N/NC(=S)Nc2ccc(C)c(C)c2)cc1	-16%

In the list so far, 13 have an NH in an aromatic ring.
SMILES	VDR inhibitor
Cn1c(N)c(C(=O)CSc2nnc(C3CC3)n2-c2ccccc2)c(=O)[nH]c1=O	1%
COCCN(C(=O)c1ccccc1F)c1c(N)n(Cc2ccccc2)c(=O)[nH]c1=O	-2%
COc1ccccc1-n1cc(-c2ccc([N+](=O)[O-])cc2)[nH]c1=S	-8%
O=C(c1ccc(Cn2c(=S)[nH]c3ccc(N4CCOCC4)cc3c2=O)cc1)N1CCC(N2CCCCC2)CC1	-15%
O=C(CSc1n[nH]c(=O)n1Cc1ccccc1)Nc1ccc(F)c(F)c1F	-9%
CCCOC(=O)c1ccc(Oc2cn[nH]c2-c2ccc(O)cc2O)cc1	1%
CCOC(=O)c1cc(S(=O)(=O)Nc2ccccc2OCC)[nH]n1	3%
COc1ccc2[nH]c3nc(SC(C)C)nnc3c2c1	-18%
CCN(CC(=O)Nc1ccccc1C(F)(F)F)C(=O)CCc1nc2sc3c(c2c(=O)[nH]1)CCCC3	-11%
COc1cc2[nH]c(=O)n(CCC(=O)NCc3cccnc3)c(=O)c2cc1OC	-2%
COc1cc2[nH]c(=O)c(C(=O)NCc3ccc(F)cc3)c(O)c2cc1OC	0%
CC(C)c1ccc(NC(=S)Nc2ccc3cn[nH]c3c2)cc1	-4%
Cc1c(-c2nc(-c3ccc4c(c3)[nH]c(=O)n4C)no2)cccc1[N+](=O)[O-]	1%

A portion of the library. The share of hits here may be higher or lower than overall.
